MenB inh: M. tuberculosis MenB inhibitors, primary screen, biochemical, absorbance | 1,4-dihydroxy-2-naphthoyl-CoA synthase (Mycobacterium tuberculosis (strain ATCC 25618 / … | MenB enzyme assay, absorbance read-out; some hits fall short of the stated cut | inhibition, %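 (about 12 µg/mL by stock and volumes)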 | 100,000 tested, 0.43% active | AID 540299, 2011;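 active means mean of two replicates above 30%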;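 further: 0% = no compound and 100% = wells with inactive enzyme; the first replicate is given; strong numbers were not always called active; inactives centre near -10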
Target sequence (P9WNP5 whole entry, looked up): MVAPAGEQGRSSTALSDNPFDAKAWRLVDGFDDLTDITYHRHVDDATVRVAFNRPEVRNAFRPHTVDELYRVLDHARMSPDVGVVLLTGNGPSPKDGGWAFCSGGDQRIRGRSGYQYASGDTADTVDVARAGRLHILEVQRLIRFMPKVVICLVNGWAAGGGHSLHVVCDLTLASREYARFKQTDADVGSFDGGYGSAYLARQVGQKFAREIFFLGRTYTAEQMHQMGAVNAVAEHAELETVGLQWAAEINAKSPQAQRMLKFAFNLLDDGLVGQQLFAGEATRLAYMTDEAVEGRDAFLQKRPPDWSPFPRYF
Mtb MbtI inh: MbtI salicylate synthase inhibitors, primary screen, biochemical, fluorescence intensity | P9WFX0 | purified MbtI enzyme, fluorescence intensity read-out | inhibition, %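 (about 17 µg/mL by stock and volumes)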 | 100,000 tested, 0.89% active | AID 493033, 2011;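 active means above 50% in both replicates, above 80% if mildly self-fluorescent; inactive means the rest, strongly fluorescent compounds included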;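 further: 0% = mean of negative and 100% = mean of positive controls; one replicate is shown; some compounds called inactive have numbers as strong as hits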
Polio RdRp inh: poliovirus RdRp elongation inhibitors, primary screen, biochemical, fluorescence polarization, total intensity | Genome polyprotein (Poliovirus type 1 (strain Mahoney)), P03300 | poliovirus polymerase elongation; stronger effect = lower value | % elongation, % (compound at 16.7 µg/mL) | 150,000 tested, 0.66% active; in the data active means % elongation below about 90%; further: some results filed as inactive read as strong as hits
Target sequence (P03300 1749-2209 limits assumed): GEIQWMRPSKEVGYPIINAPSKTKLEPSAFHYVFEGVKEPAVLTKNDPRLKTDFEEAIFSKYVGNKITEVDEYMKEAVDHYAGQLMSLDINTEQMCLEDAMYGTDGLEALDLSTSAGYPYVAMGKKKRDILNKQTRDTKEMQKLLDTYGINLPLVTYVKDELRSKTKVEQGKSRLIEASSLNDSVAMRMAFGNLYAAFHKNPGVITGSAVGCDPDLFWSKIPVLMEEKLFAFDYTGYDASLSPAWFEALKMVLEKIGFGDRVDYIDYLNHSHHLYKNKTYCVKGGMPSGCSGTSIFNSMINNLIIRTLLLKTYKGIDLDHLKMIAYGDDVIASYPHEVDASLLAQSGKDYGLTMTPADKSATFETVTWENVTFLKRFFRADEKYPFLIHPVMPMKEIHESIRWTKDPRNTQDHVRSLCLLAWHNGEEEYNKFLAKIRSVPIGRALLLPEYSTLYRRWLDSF
Polio RdRp inh intensity: second read-out of Polio RdRp inh, no call of its own (marks repeat the call); % elongation; measured here: total intensity read-out; formula for this scale not given here;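 total fluorescence in place of polarization; lower means less elongation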
Active calls of the source: *; · = no result given; & = joins results of further samples.

SMILES	MenB inh	Mtb MbtI inh	Polio RdRp inh	Polio RdRp inh intensity
CCN1C(=O)C2C(c3ccccc3O)NC(Cc3c[nH]c4ccccc34)(C(=O)O)C2C1=O (stereo not drawn)	-18.2	2.7	102.0	100.0
CC1CCN(c2nc3c(c(=O)[nH]2)CCNC3)CC1	-23.4	4.0	103.0	103.0
Cc1ccc(S(=O)(=O)N=C2C=CC(=NS(=O)(=O)c3ccc(C)cc3)C=C2)cc1	-10.2	71.5*	102.0	104.0
Cc1ccc(S(=O)(=O)N2CCC(C(=O)O)CC2)s1	-0.2	-0.2	104.0	108.0
Cc1noc(C)c1CCNC(=O)c1cnc(N2CCOCC2)nc1	-0.2	-10.4	100.0	103.0
Cc1cc(-c2csc(NC(=O)C3CC4C=CC3C4)n2)c(C)n1Cc1ccco1 (stereo not drawn)	3.7	9.7	108.0	109.0
Cc1cc(-c2nc(-c3ccnn3C(=O)Nc3cccc(Cl)c3)cs2)no1	11.2	85.3	109.0	112.0
Cc1cc(C)c(C#N)c(SCC(O)COc2ccc(Cl)cc2)n1 (stereo not drawn)	-19.6	·	102.0	107.0
S=C=NCc1ccco1	-7.2	15.6	107.0	109.0
Fc1ccccc1/C=C1\CCCC2=C1Nc1ncnn1C2c1ccccc1F (stereo not drawn)	3.9	3.0	99.0	104.0
Cn1c(=O)c2[nH]cnc2n(-c2ccccc2)c1=O	3.9	-30.6	100.0	105.0
CCn1c2ccccc2c2cc(C(N)=O)ccc21	7.8	90.5	103.0	99.0
CSc1c2ccccc2cc[n+]1C	7.6	4.5	102.0	106.0
Cc1ccc2oc(-c3ccccc3)cc(=NCCN3CCOCC3)c2c1	-8.6	34.2	99.0	100.0
CCOc1ccc(CCNc2nc(-c3ccc(OC)c(OC)c3)no2)cc1	-26.3	-7.5	104.0	107.0
C#CCN1CCOCC1	2.6	-8.3	102.0	101.0
O=C(NCCCN1CCCCC1)c1ccc2nc(N3CCCCC3)sc2c1	-1.2	-43.6	103.0	103.0
CC(Sc1nnc(N)s1)C(=O)Nc1nccs1 (stereo not drawn)	-8.8	0.8	104.0	103.0
C=C1SC(=Nc2ccccc2Cl)N(C(=O)c2cc(OC)c(OC)c(OC)c2)C1(C)C	-11.4	-10.6	102.0	110.0
CCN1CCN(CCNC(=O)c2ccc(NC(=O)C3=CSCCO3)cc2)CC1	-15.3	-2.0	101.0	103.0
CCCCCCCCCCC1=C(C)C(=O)C(OC)=C(OC)C1=O	-18.9	-5.0	104.0&103.0	105.0&104.0
CC(C)c1ccc(NC(=O)c2cccs2)cc1	-7.2	4.5	103.0	103.0
Cc1cc(NCCCN2CCOCC2)nc(-c2ccccc2O)n1	-26.4	·	103.0	100.0
COc1cc2nc(CN3CCOCC3)n(CC(=O)NCC(F)(F)F)c(=O)c2cc1OC	-16.1	-1.6	103.0	109.0
Cn1c(=O)c(=O)n(C)c2cc(N3CCCCC3)c(NS(=O)(=O)c3ccc(Br)s3)cc21	-15.3	-8.3	101.0	102.0
CCC1=NN(C(=O)C(C)C)C(O)(c2ccc(Br)cc2)C1 (stereo not drawn)	-7.7	-15.1	103.0	106.0
CCOC(=O)C1C(=O)C=C(c2ccc(F)cc2)CC1c1ccc(CC)cc1 (stereo not drawn)	-50.9	-0.3	103.0	101.0
Cc1cccc(C)c1NC(=O)C1NC(=O)CC1c1ccccc1 (stereo not drawn)	-6.0	-7.5	104.0	106.0
COC(=O)c1sccc1N=CC1=C(O)CC(C)(C)CC1=O	-4.3	1.1	107.0	104.0
O=S(=O)(Nc1ccccn1)c1cccs1	4.7	62.1	103.0	106.0
CC(C)n1nc(C(=O)Oc2ccc3c(c2)OCO3)c2ccccc2c1=O	-2.9	-6.3	106.0	113.0
Cn1c(SCc2ccccc2)nc2c([nH]c3ccccc32)c1=O	-9.4	-1.9	97.0	100.0
CC(=O)NCCCc1ccc(-c2csc(N)n2)cc1	6.2	-3.8	103.0	109.0
Cc1nc2c(=O)[nH]c(=O)n(C)c2nc1C	-7.3	116.1	101.0	101.0
CCC(C)NC(=O)COc1cccc(C)c1C (stereo not drawn)	1.3	-4.4	99.0	104.0
COCCCN=C1NN=C(c2ccc(C)c(C)c2)CS1	-59.3	59.8	111.0	112.0
COCCNc1oc(-c2ccccc2)nc1S(=O)(=O)c1ccc(Cl)cc1	-4.4	10.6	99.0	101.0
COc1ccccc1NC(=O)c1c(C)nn(-c2ccccc2)c1Cl	·	-12.2	99.0	101.0
Cc1cc(C)cc(NS(=O)(=O)c2ccc3[nH]cc(C(=O)NCCC4=CCCCC4)c(=O)c3c2)c1	-1.8	-47.8	101.0	102.0
CCN(c1ccccc1)S(=O)(=O)c1ccc(N2CCN(c3ccccn3)CC2)nc1	-28.9	-11.5	99.0	91.0
COC(=O)C(=C/C=C/N1CCCCC1)C(=O)OC	-137.7	-9.1	102.0	103.0
CCn1c(O)c(C=Nc2cccc(O)c2)sc1=S	-79.6	-3.5	75.0	173.0
O=c1oc2ccccc2n1CCc1nnc(-c2ccccc2)o1	5.2	-8.3	100.0	101.0
COc1ccc2c(CC(=O)Nc3ccnn3CC(C)C)coc2c1	-5.6	-7.0	100.0	110.0
COC(=O)c1ccc(CSc2nc3ccccc3o2)cc1	-9.6	-3.8	102.0	104.0
COc1ccccc1C(=O)Nc1ccc(C)cc1	-50.5	-9.1	100.0	100.0
COc1ccc(NC(=O)c2cnn(-c3ccccc3)c2NC(=O)c2ccccc2F)c(OC)c1	-29.0	·	107.0	109.0
COc1ccc(C(=O)OCc2ccccn2)cc1	-2.2	·	104.0	106.0
CCOC(=O)c1c(N2C(=O)C3C4C=CC(O4)C3C2=O)sc2c1CCCC2 (stereo not drawn)	-44.0	54.8	107.0	100.0
CCc1cc2c(=O)n(-c3ccccc3)cnc2s1	-60.0	0.8	101.0	101.0
O=C(Nc1ccccc1)Nc1c2c(nc3c1CCC3)CCCC2	-8.9	9.3	104.0	98.0
Cc1ccc2c(c1)N(CC(=O)N1CCCc3ccccc31)C(=O)CO2	-47.2	-4.8	105.0	100.0
C=C1N(C)c2cc(CN3C(=O)c4ccccc4C3=O)ccc2C1(C)C	-24.9	41.8	45.0	252.0
NC(=O)C1CCN(C(=O)Cc2ccc(-c3ccccc3)cc2)CC1	-10.5	-11.7	101.0	104.0
COc1ccc(CN(C)Cc2cc(=O)n3ccsc3n2)c(OC)c1OC	15.0	45.6	100.0	108.0
CCOC(=O)c1c(NC(=O)NC(C)(C)C)sc2c1CCN(C)C2	12.7	-1.6	97.0	103.0
CCN(CC)C(=O)CC1(CC(=O)N(CC)CC)C(=O)N(C)C(=O)N(C)C1=O	-53.7	-7.6	105.0	102.0
CCN(CC)S(=O)(=O)c1ccc(CNC(=O)c2ccc[nH]2)cc1	-8.1	-0.7	107.0	107.0
Cc1sc2nc(CCl)[nH]c(=O)c2c1-c1ccccc1	·	81.5*	89.0*	78.0*
COc1cccc2c1Oc1ncccc1N(c1ccc(C(=O)NCCN(C)C)s1)C2	-2.5	-130.1	101.0	102.0
Further records.
SMILES	MenB inh	Mtb MbtI inh	Polio RdRp inh	Polio RdRp inh intensity
CC(C)CC(=O)Nc1ccc2nc(SCc3cc(=O)n4ccsc4n3)sc2c1	3.5	-18.1	99.0	102.0
CC1CCCCN1C(=O)c1ccc(C(=O)N2CCCCC2C)cc1 (stereo not drawn)	13.4	1.9	104.0	101.0
CC1CC(C)CN(C(=O)COC(=O)c2ccc(N3CCCC3=O)cc2)C1 (stereo not drawn)	0.6	-12.6	107.0	110.0
CC(=O)OC1CC(C)(C)N(C(C)=O)C(C)(C)C1	-5.1	-2.5	101.0	100.0
CN(C)S(=O)(=O)c1ccc(C(=O)Nc2c3c(nn2-c2ccccc2)CSC3)cc1	-29.3	-1.7	101.0	98.0
C=C(C)C1CC=C(C)/C(=N\NC(=O)c2ccc(O)cc2)C1 (stereo not drawn)	4.4	2.5	102.0	103.0
CC(C)N(C(=O)CSc1nnnn1-c1ccccc1)C(C)C	-6.1	-3.3	102.0	103.0
O=C(Nc1nc(-c2ccc(OC(F)(F)F)cc2)no1)NN1CCCCC1	-1.5	-4.9	101.0	104.0
N=C1/C(=C/c2ccc(F)cc2)C(=O)N=C2SC(C(F)(F)F)=NN12	-11.9	-11.1	103.0	108.0
NC(Cc1c[nH]c2ccccc12)C(=O)O (stereo not drawn)	-1.5&10.6	15.3&-21.5	99.0&100.0	95.0&100.0
O=C(CN1CCCCCCC1)N/N=C/c1ccccc1C(F)(F)F	-38.6	-14.4	100.0	103.0
O=C(c1ccc(N2CCCC2=O)cc1)N1CCCC1	-10.6	7.1	104.0	102.0
CCOC1CC(C)(C)NC(=S)N1 (stereo not drawn)	-14.6	·	104.0	109.0
COCC(C)N1CC(C(=O)O)CC1=O (stereo not drawn)	-19.6	2.1	101.0	101.0
CCN1/C(=C2/SC(=S)N(C)C2=O)Sc2ccc(S(=O)(=O)C(F)(F)F)cc21	-69.5	-3.5	102.0	104.0
CN(C)C(CNC(=O)c1ccccc1SCC(=O)NCc1ccco1)c1ccccc1 (stereo not drawn)	-6.9	65.1	99.0	102.0
CCSc1nnc(-c2cc(-c3cccs3)nc3ccccc23)o1	-19.6	104.3	101.0	100.0
CC(Sc1nnc(-c2cccs2)n1-c1ccccc1)C(=O)NCc1ccc2c(c1)OCO2 (stereo not drawn)	5.7	-62.7	98.0	105.0
CN1CCC(N)CC1	-20.1	-3.5	98.0	102.0
Cc1cc2cc(CNC(=O)Nc3cccc(Cl)c3)ccc2n1C	-5.4	-9.9	102.0	100.0
CCOc1ccc(/C=N/C2=C(C#N)C3CCCCC3S2)cc1OC (stereo not drawn)	2.0	-4.3	103.0	102.0
COc1ccc(-n2ncc3c2ncn2nc(-c4ccccc4)nc32)cc1	-9.4	10.8	100.0	101.0
CCCOc1cccc(NC(=O)c2occc2C)c1	-10.5	·	97.0	99.0
Cc1noc(C)c1C(=O)Oc1ccc(-c2n[nH]nc2C#N)cc1	-15.6	-20.4	101.0	112.0
Cc1ccc(CS(=O)Cc2ccc(C(=O)NCc3ccccc3)o2)cc1 (stereo not drawn)	-1.0	3.2	102.0	103.0
O=C(COC(=O)C1CC(=O)N(Cc2ccccc2)C1)Nc1ccc(SC(F)F)cc1 (stereo not drawn)	-4.9	22.6	103.0	100.0
O=C(Nc1ccccc1)Nc1c2ccccc2nc(=O)n1Cc1ccccc1	-8.1	-9.0	104.0	106.0
O=C(CN1CC(=O)Nc2ccccc21)Nc1cccc(Cl)c1	-28.9	-35.0	107.0	99.0
Clc1ccccc1C(c1nnnn1Cc1ccco1)N1CCN(Cc2ccco2)CC1 (stereo not drawn)	-6.9	9.8	101.0	103.0
CC(Oc1ccc(C(C)C)cc1)C(=O)Nc1nccs1 (stereo not drawn)	23.2	-0.5	101.0	100.0
CCOc1ccc(CCNC(=O)C2CCN(S(C)(=O)=O)CC2)cc1OCC	14.6	-10.1	104.0	103.0
CN(Cc1ccccc1)C(=O)c1ccccc1Cl	-20.9	·	102.0	111.0
CC1(C)Cc2[nH]c(=S)c(C#N)cc2CO1	-84.8	91.8	101.0	101.0
CC(=O)O/N=C(\N)c1nccnc1Sc1ccc(Cl)cc1	9.5	8.8	101.0	103.0
O=C(Nc1ccccc1)c1cccnc1	-7.7	-1.1	99.0	101.0
N#Cc1ccc(NC(=O)CS(=O)(=O)c2ccccc2)cc1	-21.5	-15.0	100.0	102.0
COc1cccc(OC)c1C1N=C(N)Nc2nc3ccccc3n21 (stereo not drawn)	-26.1	0.5	100.0	106.0
COc1ccc(NC(=O)Nc2ccc(N3CCCC3=O)cc2)cc1OC	-26.8	·	102.0	99.0
O=S(=O)(c1ccc(Cl)cc1)N(CCc1ccccn1)c1ccc(Cl)cc1	-4.0	-10.8	110.0	120.0
O=C(NCCc1ccccn1)c1ccccc1OCc1ccccc1	·	-14.8	101.0	103.0
COc1ccc(NC(=O)c2cnc(SC)nc2)cc1	-10.8	10.4	104.0	103.0
COc1cccc(Nc2ccc(C(=O)O)cc2N)c1	-4.0	-25.1	101.0	102.0
CCSc1nnc(NC(=O)CC(C)C)s1	-5.9	1.8	101.0	102.0

2 compounds drawn at random from the list so far, as already listed:
SMILES	MenB inh	Mtb MbtI inh	Polio RdRp inh	Polio RdRp inh intensity
COc1cccc(Nc2ccc(C(=O)O)cc2N)c1	-4.0	-25.1	101.0	102.0
CCOc1ccc(/C=N/C2=C(C#N)C3CCCCC3S2)cc1OC (stereo not drawn)	2.0	-4.3	103.0	102.0

Seven of the compounds above, in markdown.
| canonical_smiles | MenB inh | Mtb MbtI inh | Polio RdRp inh | Polio RdRp inh intensity |
| --- | --- | --- | --- | --- |
| CCOc1ccc(/C=N/C2=C(C#N)C3CCCCC3S2)cc1OC (stereo not drawn) | 2.0 | -4.3 | 103.0 | 102.0 |
| COc1ccc(-n2ncc3c2ncn2nc(-c4ccccc4)nc32)cc1 | -9.4 | 10.8 | 100.0 | 101.0 |
| CCCOc1cccc(NC(=O)c2occc2C)c1 | -10.5 | · | 97.0 | 99.0 |
| Cc1noc(C)c1C(=O)Oc1ccc(-c2n[nH]nc2C#N)cc1 | -15.6 | -20.4 | 101.0 | 112.0 |
| Cc1ccc(CS(=O)Cc2ccc(C(=O)NCc3ccccc3)o2)cc1 (stereo not drawn) | -1.0 | 3.2 | 102.0 | 103.0 |
| O=C(COC(=O)C1CC(=O)N(Cc2ccccc2)C1)Nc1ccc(SC(F)F)cc1 (stereo not drawn) | -4.9 | 22.6 | 103.0 | 100.0 |
| O=C(Nc1ccccc1)Nc1c2ccccc2nc(=O)n1Cc1ccccc1 | -8.1 | -9.0 | 104.0 | 106.0 |
